Menin MLL FP FL: displaces fluorescein MLL peptide from human menin. 290,000 tested, under 10 active. AID 1766. FP activity change, % at 61.4 µM. Fluorescence polarization, fluorescein-MLL peptide displacement from menin; inconclusive = falling polarisation curve, or a change in total fluorescence; inactive = total fluorescence flat and polarisation flat or rising; no compound was filed as active; the % refers to the polarisation; negative = inhibition;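 note: % of control where 0% means no effect; inhibitors lower the polarisation; unlabelled MLL peptide was the positive control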
TRPV1 potentiator: enhances activation of the human vanilloid receptor TRPV1; Q8NER1; potentiation, % at 8.33 µM; TRPV1-expressing cells, Fluo-8 calcium influx, capsaicin EC20 potentiation; host cell line not named in the record; control for the full effect not named in the record; actives 0.02% (n = 320,000); active means potentiation above 80%; inconclusive means 30% to 80%; inactive means below 30%; note: 0% is about no effect
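Fluo-8 calcium influx in TRPV1-expressing cells, kinetic read (ex 480/em 520 nm). Compound added and read 3 min for agonist activity, followed by capsaicin at EC20 final and 2 min further read for enhancement.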
gsp antagonist: antagonizes gsp, the McCune-Albright syndrome mutation; gsp-mutant cells, cAMP HTRF, 30 min; control for the full effect not named in the record; Potency, µM (series often up to 76.9 µM), without a hit: top-dose activity change, negative = inhibition, most hits filed as inhibitors; actives 0.4% (n = 340,000); active = falling curve of any shape with a large fitted effect; inconclusive = falling curve, mostly with a smaller effect; inactive = flat or rising curve; cell line not stated here;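 note: intracellular cAMP measured with PDE inhibitor Ro 20-1724 present during compound exposure; potency is the fitted concentration of half-maximal effect; % is set by controls: 0 for no effect and ±100 for the full control effect; nearly all actives have a fitted effect of over 65% in size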
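HTRF cAMP read-out (cAMP-d2 plus anti-cAMP antibody-K in lysis buffer, 30 min RT). Before lysis, cells are exposed to compounds with […] for 30 min at 37C in DPBS containing Ca/Mg, BSA and Tween 20.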
gsp agonist: activates gsp, the McCune-Albright syndrome mutation; actives 0.13% (n = 340,000); Potency, µM (doses to about 76.9 µM), without a hit: top-dose activation (cAMP increase), actives largely listed as activators; AID 624287; gsp mutant cells, cAMP HTRF, 30 min; control for the full effect not named in the record; active = well fitted activation curve with a large enough effect; inconclusive = small, poorly fitted or top-dose-only effect, or another doubt; inactive = no such curve, though single readings can be large or run the other way; cell line not stated here;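 note: phosphodiesterase inhibitor Ro 20-1724 added with compounds to block cAMP breakdown; potency is the fitted concentration of half-maximal effect; nearly all actives have a fitted effect of over 60% in size; about a fifth of the inactives were tested at one dose only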
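Cells stably selected in G418 were plated at 2000/well, grown 16-24 hr, then given compounds in DMSO with the PDE inhibitor […] (300 uM solution added) for 30 min at 37C; cAMP was read by HTRF.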
Sfp inh: blocks B. subtilis Sfp PPTase activity. Q9F4F7. Biochemical Sfp PPTase activity, qHTS. Potency, µM, for the others: max response, negative = inhibition, actives largely listed as inhibitors. actives 3.5% (n = 310,000); active = well fitted inhibition curve with a large enough effect; inconclusive = small, poorly fitted or top-dose-only effect, or another doubt; inactive = no such curve, though single readings can be large or run the other way;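 note: the enzyme is Sfp with the accession as filed and its product quenches rhodamine fluorescence; potency is the fitted concentration of half-maximal effect; 0% = enzyme reaction without inhibitor and -100% = no enzyme wells; top concentration of the series not given in the record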
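Step 1, compound plus 15 nM Sfp-PPTase, 15 min, room temperature. Step 2, add rhodamine-CoA (5 uM) and BHQ-2-YbbR (12.5 uM). Step 3, read 525/598 nm fluorescence at 0 and 30 min.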
TRPML1 inh: inhibitors of human TRPML1 channel | Q9GZU1 | TRPML1-inducible cells, Ca2+ dye fluorescence, FDSS; hits give low values; inhibition of EC80 agonist-evoked calcium signal | activity change, negative = inhibition, % (test concentration not listed) | actives 0.02% (n = 390,000) | AID 624415; in the data active means activity change below about -50%; inconclusive means about -30% to -50%; inactive means above about -30%;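 note: stimulus is agonist 54-4 at its EC80 concentration; % is set by controls: 0 for no effect and ±100 for the full control effect; compound concentration not given in the record; the text of the record puts the active cut at -80%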
Target sequence (Q9GZU1 whole entry, looked up): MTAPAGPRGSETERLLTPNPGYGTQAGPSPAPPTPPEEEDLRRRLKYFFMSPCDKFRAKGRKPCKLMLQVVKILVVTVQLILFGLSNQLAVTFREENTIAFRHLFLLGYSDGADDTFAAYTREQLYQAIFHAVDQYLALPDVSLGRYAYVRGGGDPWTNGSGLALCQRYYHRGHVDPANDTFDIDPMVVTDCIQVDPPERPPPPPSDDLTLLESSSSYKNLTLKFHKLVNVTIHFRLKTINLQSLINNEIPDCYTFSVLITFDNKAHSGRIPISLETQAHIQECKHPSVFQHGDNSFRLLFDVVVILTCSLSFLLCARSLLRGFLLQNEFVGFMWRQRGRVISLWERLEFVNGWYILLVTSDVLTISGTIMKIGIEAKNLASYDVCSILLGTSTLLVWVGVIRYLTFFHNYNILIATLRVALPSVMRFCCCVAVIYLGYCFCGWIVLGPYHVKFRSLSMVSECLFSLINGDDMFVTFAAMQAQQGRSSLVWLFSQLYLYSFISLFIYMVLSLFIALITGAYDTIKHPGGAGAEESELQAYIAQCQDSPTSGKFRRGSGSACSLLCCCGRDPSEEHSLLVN
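Calcium fluorescence in TRPML1-DL cells induced overnight with Tet: a 110 s read after compound pin addition, then a 110 s antagonist read after challenge with 54-4 at 4 uM final (EC80).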
ClpP mod: qHTS Assay for Activators of ClpP; ATP-dependent Clp protease proteolytic subunit (Bacillus subtilis (strain 168)), P80244; purified B. subtilis ClpP, FRET peptide cleavage, 20 min; Potency, µM (highest dose often 57.5 µM), without a hit: at the top dose activity change, negative = active; actives 1.9% (n = 340,000); active = well fitted falling curve with a large enough effect; inconclusive = small, poorly fitted or top-dose-only effect; inactive = no such curve, though single readings can be large or run the other way; note: potency is the fitted concentration of half-maximal effect; the source files actives as falling curves though it sought activators and does not explain the sign; nearly all actives have a fitted effect of over 65% in size; many hits overshoot -100%
Target sequence (P80244 whole entry, looked up): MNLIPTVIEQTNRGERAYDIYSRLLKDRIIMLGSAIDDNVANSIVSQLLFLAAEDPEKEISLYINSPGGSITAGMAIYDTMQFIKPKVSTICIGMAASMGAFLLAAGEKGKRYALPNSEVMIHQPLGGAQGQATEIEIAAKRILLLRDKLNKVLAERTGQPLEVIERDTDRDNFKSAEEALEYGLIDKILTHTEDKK
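ClpP 10 microg/mL final, pH 8 Tris/KCl buffer with BSA, glycerol, Tween-20; compound pinned in; FRET-FV substrate; RT 20 min; Ex320/Em430; ΔFRET vs ADEP 5.8 microM, DMSO, no enzyme.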
* = called active by the depositor; ? = inconclusive; . = not tested or not shown; & = joins results of further samples; [ ] = remark or other dose. Random draw from the library. Share with any hit: about 4.9%.

SMILES | Menin MLL FP FL | TRPV1 potentiator | gsp antagonist | gsp agonist | Sfp inh | TRPML1 inh | ClpP mod
CC(=O)c1cn(CCOc2ccccc2C)c2ccccc12 | -1.2 | 9 | ? | -4% | 7% | 29 | -2.3%
C=C(C)C(=O)Oc1ccc(N2C(=O)[C@@H]3C4C=CC(C4)[C@@H]3C2=O)cc1 | -1.8 | 26 | -3% | 4%[15.4 µM] | 8% | 8 | -3.2%
COc1ccc(C(=O)N/N=C/c2ccc(N(C)c3ccccc3)cc2)cc1 | . | . | ? | -3% | . | -17 | 3.7%
CC(=O)Nc1ccc(NC(=O)C(C)Oc2ccc(C)nc2[N+](=O)[O-])cc1 (stereo not given) | . | -3 | 2% | -5% | . | 12 | -1.3%
COc1ccccc1OCc1nnc(SCC(=O)Nc2nnc(C3CC3)s2)n1C | -3.9 | -4 | -14% | -45%[inhibitor] | 9% | -16 | .
OCC1OC(c2ccccc2)OC2COC(c3ccccc3)OC12 (stereo not given) | . | . | 1% | -5%[15.4 µM] | . | -8 | 0.4%
COc1ccc(CNC(=O)C2CSC(c3ccc(OC)cc3)N2C(C)=O)cc1 (stereo not given) | 5.0 | ? | -2% | -20% | 23% | -6 | 1.5%
COc1cc(C(=O)NNC(=S)NC(=O)c2ccc(F)cc2)cc(OC)c1OC | 0.9 | ? | 12% | 18% | 4% | 13 | .
Cc1ccc(NC(=O)CN2CCCC2)c2c1CC(C)(C)O2 | 5.0 | -5 | 12% | 8% | 4% | -8 | .
CN(C)c1ccc(CN(C(=O)c2ccco2)C2CCS(=O)(=O)C2)cc1 (stereo not given) | -0.5 | 14 | -22% | -25% | -4% | -5 | 0.7%
N#Cc1cccc2c1-c1ccccc1/C2=N/NC(N)=O | -2.3 | -23 | 1% | 39% | 0% | . | -1.4%
CC(=O)c1cc(C(=O)N2CCc3c([nH]c4ccccc34)C2C2CCCCC2)[nH]n1 (stereo not given) | 2.2 | 1 | -5% | -16% | 6% | 42 | -7.8%
O=C(c1nc2nc(-c3cccs3)cc(C(F)(F)F)n2n1)N1CCN(Cc2ccccc2)CC1 | 4.6 | -1 | -7% | 5% | -18% | -8 | 2.5µM*
CCOC(=O)C[N+](CC)(CC)CC#Cc1ccccc1 | 0.9 | 7 | -3% | 3%[15.4 µM] | 12% | -5 | -0.9%
Cc1nc2cc(NC(=O)NCc3ccccc3)ccc2o1 | 0.7 | 19 | -2% | -8%[15.4 µM] | -4% | -6 | 0.2%
O=C(Nc1nc2cc3c(cc2s1)OCO3)c1ccc(N2C(=O)CCC2=O)cc1 | 12 | 7 | ? | ? | -5% | . | -21%
CCC1COC(c2cccn2Cc2ccccc2Cl)=N1 (stereo not given) | 1.7 | 3 | -2% | -19% | 0% | 6 | 0.6%
COc1ccc2c(c1OC)C(=O)OC2CC(=O)c1ccc2c(c1)OCO2 (stereo not given) | 0.6 | 6 | 5% | 13% | 25% | 24 | -17%&-20%
Cc1cnc(NC(=O)CCNC(=O)c2ccccc2Cl)s1 | 5.9 | 1 | 10% | 1%[15.4 µM] | 4% | 5 | .
COCCOc1ccc(C(F)(F)F)cc1NC(=O)Cc1ccc(S(=O)(=O)N2CCOCC2)s1 | . | -7 | -17% | -1% | . | -9 | -0.5%
CC(=O)Nc1ccc(NC(=O)c2cccc3ccccc23)cc1 | 0.1 | 2 | -3% | 7%[15.4 µM] | 29% | -9 | -0.4%
CS(=O)(=O)N(CC(=O)NCCSCc1cccc(Cl)c1)c1ccccc1F | 2.9 | 4 | -5% | -32%[inhibitor] | 2% | -7 | 0.7%
Cn1nnnc1SCC(=O)Nc1ccccc1N1CCCCC1 | 1.3 | 4 | 9% | -17% | 37%[activator] | 24 | -1.4%
Cc1cc(Nc2ccccc2)n(-c2cccc(Cl)c2)n1 | 3.0 | -8 | -23% | 8% | -6% | -11 | -2.4%
CCCCC(=O)Nc1ccccc1N1CCOCC1 | 0.3 | -3 | 8% | -2% | 8% | -7 | .
O=C(COc1ccccc1F)Nc1cc(S(=O)(=O)Nc2cccc(Cl)c2)ccc1O | . | 2 | 35µM* | 30% | . | -7 | -1.7%
O=C(OCC(=O)N1CCCc2ccccc21)c1ccccc1[N+](=O)[O-] | . | -23 | -8% | 8% | . | -13 | -2.4%
Cc1ccc(OCC2Cn3c(nc4c3c(=O)[nH]c(=O)n4C)O2)cc1C (stereo not given) | -1.6 | 21 | -3% | -35%[inhibitor] | 14% | -18 | .
CCSc1ncc(CO)c(N)n1 | 1.1 | 5 | 5% | 0% | 5% | 2 | .
CN(C(=O)COC(=O)C1COc2ccccc2O1)C1(C#N)CCCCC1 (stereo not given) | . | -20 | -4% | 4% | . | -8 | -2.5%
O=C(NCC(=O)N(c1ccccc1F)C(C(=O)NC1CCCC1)c1ccco1)c1ccco1 (stereo not given) | -4.8 | -7 | 2% | 16% | 7% | -11 | .
CC(C)CNC(=O)c1cccc(NC(=O)Cc2ccc(Cl)cc2)c1 | 3.7 | -15 | -8% | 19% | -19% | -12 | -3.3%
COCCSc1nnc(NC(=O)C2CCCCC2)s1 | 1.9 | 16 | 4% | 7% | 18% | -8 | -1.0%
CSc1nnc2n(-c3ccccc3)c(=O)c3c4c(sc3n12)CCC4 | 3.2 | 5 | -5% | 12% | 3% | 15 | -2.3%
Cc1cccc(CS(=O)(=O)Cc2ccc(C(=O)NCC3CCCO3)o2)c1 (stereo not given) | 2.0 | -11 | -2% | 16%[15.4 µM] | 15% | -7 | -0.8%
COc1ccccc1N=c1c2c([N+](=O)[O-])cc([N+](=O)[O-])cc2n(O)n1-c1ccccc1OC | -0.8 | 5 | . | . | 17% | . | .

Whole records, quoted from the list. Order of values: Menin MLL FP FL	TRPV1 potentiator	gsp antagonist	gsp agonist	Sfp inh	TRPML1 inh	ClpP mod
Profile of `O=C(NCC(=O)N(c1ccccc1F)C(C(=O)NC1CCCC1)c1ccco1)c1ccco1` (stereo not given) : -4.8	-7	2%	16%	7%	-11	.
Profile of `COCCSc1nnc(NC(=O)C2CCCCC2)s1` : 1.9	16	4%	7%	18%	-8	-1.0%
Profile of `O=C(OCC(=O)N1CCCc2ccccc21)c1ccccc1[N+](=O)[O-]` : .	-23	-8%	8%	.	-13	-2.4%
Profile of `COc1ccccc1N=c1c2c([N+](=O)[O-])cc([N+](=O)[O-])cc2n(O)n1-c1ccccc1OC` : -0.8	5	.	.	17%	.	.
Profile of `O=C(COc1ccccc1F)Nc1cc(S(=O)(=O)Nc2cccc(Cl)c2)ccc1O` : .	2	35µM*	30%	.	-7	-1.7%

Further records:
SMILES | Menin MLL FP FL | TRPV1 potentiator | gsp antagonist | gsp agonist | Sfp inh | TRPML1 inh | ClpP mod
O=C1NC[C@@H](Cc2cccc3ccccc23)N(CCC23CC4CC(CC(C4)C2)C3)C1=O | . | -18 | 0% | -2% | . | -27 | -3.6%
Cc1c(S(=O)(=O)Nc2cccc(Cl)c2)c(=O)n(C)c(=O)n1C | -0.6 | 20 | -2% | 1% | 17% | -11 | 1.6%
O=C(CSc1nnc(-c2ccccc2)n1-c1ccc(Cl)cc1)NNC(=S)Nc1ccccc1 | -0.5 | ? | -10% | -8% | 6% | -13 | 0.7%
Nc1ccc(Cc2ccc(N)c(C(=O)O)c2)cc1C(=O)O | -0.1 | 6 | -11% | ? | -10% | 9 | -11%
COc1ccc(NC(=O)c2cc(S(=O)(=O)NCC3COc4ccccc4O3)ccc2F)cc1 (stereo not given) | -1.2 | 5 | -4% | -11% | 23% | -10 | -1.1%
O=C(NCCCn1ccnc1)Nc1ccc(Cl)cc1Cl | -0.7 | -6 | 10% | -5% | 6% | -11 | -3.6%
CN(Cc1cccs1)c1ncnc2sccc12 | 0.7 | 13 | -22% | 29% | 79µM* | -18 | -0.4%
CCCCC(CC)C(=O)Nc1cc(C(=O)NCc2ccc(C)cc2)ccc1N1CCC2(CC1)CC(c1ccccc1)=NO2 (stereo not given) | -3.1 | -2 | -6% | . | 12% | 3 | -6.9%
CCOc1ccc(C(CC(=O)O)NC(=O)CCCOc2ccc(Cl)cc2C)cc1 (stereo not given) | 3.0 | 29 | -7% | 12%[15.4 µM] | 14% | 20 | .
CCN(CC)c1ccc(C(=O)NC(=S)Nc2cc(S(=O)(=O)N3CCOCC3)ccc2-n2cncn2)cc1 | 3.8 | 1 | 0% | -6%[15.4 µM] | -10% | 0 | -13%
COc1cc(/C=C2\SC(=S)N(CC(=O)Nc3ccc(O)cc3)C2=O)cc(OC)c1OC | -2.3 | -1 | -16% | -6% | -3% | -14 | 1.6%
O=C(C[n+]1ccc(/C=N/O)cc1)N1CCCCC1 | -0.4 | -12 | 11% | -11%[15.4 µM] | 21% | -10 | 3.9%
O=C(Nc1ccc(N2CCCCC2)c(S(=O)(=O)Nc2ccccc2Cl)c1)c1cccnc1 | . | . | -3% | 20% | . | -7 | -0.8%
c1ccc(Oc2cccc(OCCCCN3CCCC3)c2)cc1 | -1.1 | 4 | 11% | 23% | -17% | 3 | 0.2%
O=S(=O)(c1ccc(-c2nnc(SCc3nnc(-c4ccccc4)o3)o2)cc1)N1CCCC1 | -0.6 | 2 | -1% | -1% | 5% | -3 | -0.5%
Cc1cccc(N2C(=O)/C(=C\c3ccc(OC(F)F)cc3)c3ccccc3C2=O)c1 | 11 | -8 | 8% | -36%[inhibitor] | ? | -10 | -5.1%
CC(=O)c1ccc(S(=O)(=O)N2CCN(CCOc3ccccc3)CC2)cc1 | . | . | -6% | 0% | . | -15 | -0.4%
CCN(CC)CCOc1ccccc1C(C)=O | -4.8 | 3 | 9% | 9% | -15% | -13 | .
COCCNC(=O)c1cc(C(=O)CC(C)C)c[nH]1 | -2.2 | 2 | 2% | 5%[15.4 µM] | ? | -1 | -0.4%

High-throughput results: PubChem BioAssay, National Center for Advancing Translational Sciences (NCATS)
